AF4-AF9 inh: inhibitors of AF4 peptide binding to AF9, primary screen, biochemical, AlphaScreen, biotin-AF4 peptide, FLAG-AF9, single point; AID 651704, 2012; Protein AF-9 (Homo sapiens), P42568; 350,000 tested, 0.47% active; inhibition, % at 10 µM;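 active = every replicate reaching a set inhibition limit, whatever the replicate mean, cut at about 25% in these data; inconclusive = mean inhibition reaches that limit but some replicates miss it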;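 note: 0% = plate neutral control median and 100% = total signal loss; the record names both 10 and 1 µM as test concentration; the first replicate is given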
Target sequence (P42568 whole entry, looked up): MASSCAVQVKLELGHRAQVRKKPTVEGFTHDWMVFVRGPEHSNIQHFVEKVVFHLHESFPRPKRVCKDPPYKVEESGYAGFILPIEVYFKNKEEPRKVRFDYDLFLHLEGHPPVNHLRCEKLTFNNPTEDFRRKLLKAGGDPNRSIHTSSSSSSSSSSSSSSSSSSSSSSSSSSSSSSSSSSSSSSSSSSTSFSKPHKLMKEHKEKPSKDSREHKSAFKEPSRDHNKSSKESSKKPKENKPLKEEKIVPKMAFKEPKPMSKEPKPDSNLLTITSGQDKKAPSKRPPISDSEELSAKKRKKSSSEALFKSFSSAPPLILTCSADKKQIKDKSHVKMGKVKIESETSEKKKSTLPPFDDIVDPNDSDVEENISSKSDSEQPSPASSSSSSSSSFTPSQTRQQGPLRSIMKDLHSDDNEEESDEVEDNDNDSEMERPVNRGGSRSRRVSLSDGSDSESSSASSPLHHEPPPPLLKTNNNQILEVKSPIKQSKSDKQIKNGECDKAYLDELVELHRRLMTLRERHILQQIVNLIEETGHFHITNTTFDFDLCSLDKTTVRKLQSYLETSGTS
RanGTP-Impb inh: inhibitors of RanGTP-importin-beta interaction, primary screen, biochemical, FRET, CFP-Ran, YFP-importin-beta, homogeneous | cell-free CFP-Ran/YFP-importin-beta FRET ratio | inhibition, % (test concentration not listed) | Ran GTPase (GTP-bound) - importin-beta complex | 300,000 tested, 1.1% active;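 active = most replicates above 15%; inconclusive = exactly half above 15%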;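 note: 0% = DMSO wells and 100% = Ran loaded with GDP instead of GTP; wells of about 40 µL received 100 nL stock; the first replicate is given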
T cruzi inh: inhibitors of intracellular T. cruzi growth, primary screen, luminescence, NIH3T3 host cells. T. cruzi beta-gal in NIH3T3, 90 h. inhibition, % (concentration not given with the values). 300,000 tested, 1.4% active;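 active = mean inhibition across valid replicates above about 55%, limit read from the data; inconclusive = mean below that limit but half or more replicates reach it; inactive = mean below it, under half of replicates reach it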;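 note: signal also drops with host cell toxicity which is not excluded here; 0% = plate median of DMSO wells and 100% = zero luminescence signal; higher percent means less beta-gal luminescence so fewer parasites; stock transfer was 50 nL into about 50 µL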
Calb FLC: C. albicans growth inhibition with fluconazole, primary screen, CaCi-2 strain, Alamar Blue fluorescence | C. albicans CaCi-2 (fluconazole-resistant clinical isolate) + fluconazole, 48 h | growth inhibition, % (test concentration not listed) | 300,000 tested, 0.57% active | AID 1979, 2009;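 active = most replicates above 75%; inconclusive = exactly half above 75%; inactive = most below 75%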;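 note: all wells also contain fluconazole at 8 µg/ml as a sub-toxic cotreatment; 0% = median of DMSO wells and 100% = median of geldanamycin control wells; wells of about 8 µL received 7.5 nL stock; the first replicate is given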
rRNA inh HTS: reduced GFP signal of wild-type E. coli, primary screen, bacterial rRNA inhibitor project, GFP/RFP fluorescence, OD600, single point; E. coli WT GFP vs humanized-ribosome RFP mutants, 24 h; stronger effect = lower value; DMSO median 0, no signal -100; GFP signal change (wild-type ribosome), % (concentration not given with the values); 350,000 tested, 1.6% active; AID 720706, 2013;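 active = significant combined selectivity score with lowered wild-type GFP, culture density cut under 30%, mutant RFP and density less affected; inactive = any of these conditions unmet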; note: one replicate is shown; some compounds called inactive have numbers as strong as hits
Bfl-1 A1 inh: caspase 3/7 activation in MEF A1-2A-BIM cells, primary screen, A1 inhibitor project, cell-based, luminescence, HTS; Caspase-Glo 3/7 luminescence, 3 h; percent of clofoctol response, vehicle zero; caspase activation, % (concentration not given with the values); 330,000 tested, 0.066% active; AID 2462, 2010;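 active = over half of replicate activation scores above 10%, or exactly half above 10 with the replicate mean above 10; inconclusive = replicate mean below 10 yet half the replicates above 10; inactive = over half of replicates below 10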;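 note: wells of about 30 µL received 50 nL stock; many hits fall short of the cut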
Vif A3G: inhibitors of Vif binding to APOBEC3G peptide, primary screen, biochemical, TR-FRET, GST-Vif 1-94, biotin-A3G peptide, dose response retest (AID 1117319); Virion infectivity factor (Human immunodeficiency virus type 1 group M subtype B (isolate …; TR-FRET GST-Vif / biotin-A3G peptide binding; higher % means a stronger effect; test concentration not given here; strong numbers were not always called active; one-dose inhibition, %; IC50 in µM for titrated hits; 260,000 tested, 0.57% active;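 active = above the screen mean plus three standard deviations and confirmed in dose response; inconclusive = results disagree or hit not tested in dose response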;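 note: Vif residues 1-94 fused to GST binding biotinylated APOBEC3G peptide 110-148; 0% = full assay without inhibitor and 100% = GST in place of GST-Vif; retest series ran down from 100 µM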
Beta cell apopt: inhibitors of cytokine-induced beta cell apoptosis, primary screen, luminescence; INS-1E cytokine-induced death, ATP luminescence, 48 h; percent of positive-control rescue, neutral wells zero; 300,000 tested, 0.8% active; protection from apoptosis, % (test concentration not listed);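 active = all replicates at 75% or more, or half of them and the mean; inconclusive = half reach 75% but not the mean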;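 note: 0% = cytokine-treated negative control wells and 100% = positive control rescue; higher means more ATP so stronger rescue from cytokine killing; wells of about 40 µL received 100 nL stock; the first replicate is given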
rRNA inh HTS OD600: recorded beside rRNA inh HTS, whose call it bears; OD600 change, %; measured here: OD600 growth;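 optical density of the mix in the first replicate; 0 = DMSO median and -100 = no signal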
rRNA inh HTS RFP: second read-out of rRNA inh HTS, no call of its own (marks repeat the call); RFP signal change, %; measured here: RFP humanized mutant strains;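 first replicate; 0 = DMSO median and -100 = no signal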
* marks the source's active call; other numbers are inactive results; ? = inconclusive; . = not tested or not shown; & = joins results of further samples.

SMILES | AF4-AF9 inh | RanGTP-Impb inh | T cruzi inh | Calb FLC | rRNA inh HTS | rRNA inh HTS OD600 | rRNA inh HTS RFP | Bfl-1 A1 inh | Vif A3G | Beta cell apopt
Cc1cc2cc(CNC(=O)C(C)Oc3ccccc3)ccc2n1C (stereo not given) | 2.0 | -0.2 | 45 | -6 | 7 | 5 | 22 | 0.4 | 12% | 4
COc1cccc(C(=O)NCC(=O)N/N=C/c2ccc(OC(=O)c3cccs3)c(OC)c2)c1 | -59 | -0.5 | 9 | -58 | -8 | 1 | -2.5 | 3.0 | . | 7
CCOc1ccccc1C(=O)NC(C)CCc1ccccc1 (stereo not given) | -6.8 | 1.2 | 4 | 4 | -26 | -37 | -2.3 | 0.6 | . | -5
CCOC(=O)CSC1=C(C#N)C(c2ccc(C)cc2)C2=C(CCCC2=O)N1 (stereo not given) | . | 3.4 | 5 | 0 | . | . | . | 1.1 | -1% | -4
COc1cc(C(=O)NC(=S)Nc2ccc3[nH]c(=O)[nH]c3c2)cc(OC)c1OC | -1.1 | 3.9 | -27 | 28 | 0 | 12 | 2.2 | 0.7 | 3% | -5
COc1ccc(C2CC(c3ccccc3)=NN2c2ccc(N)cc2)cc1 (stereo not given) | 6.2 | 4.6 | -1 | 17 | -22 | -11 | -13 | 0.2 | 20% | 7
N#C/C(=C\c1ccc[nH]1)Sc1nc2ccccc2s1 | . | -2.2 | 13 | 1 | . | . | . | 0.5 | 9% | 6
c1coc(-c2nn3c(-c4ccco4)nnc3s2)c1 | . | -2.7 | -9 | -4 | . | . | . | -0.2 | 25% | 4
Cc1ccc(C)c(-c2nc3ccc(N)cc3[nH]2)c1 | . | -1.8 | -16 | -7 | . | . | . | -7.4 | 3% | -3
NC(=O)NC(=O)COC(=O)[C@H](Cc1ccccc1)NC(=O)c1cccs1 | -3.2 | 2.0 | -9 | 20 | 4 | 7 | -1.0 | 0.8 | 0% | 2
O=C(NCCC(=O)N1CCN(c2ncccn2)CC1)c1ccccc1 | . | -2.6 | -20 | 0 | . | . | . | 0.7 | 10% | 0
Cc1ccc(-c2n[nH]c3c2C(c2ccccc2)N(c2ccc(C(=O)O)cc2)C3=O)cc1 (stereo not given) | 1.9 | -3.6 | 4 | 3 | -27 | -22 | -15 | 0.7 | -4% | -3
O=C(NCCc1nc(-c2ccc(F)cc2)no1)c1ccc(F)cc1 | -0.4 | . | . | . | -3 | 8 | -4.6 | 0.9 | . | 0
CC(/C=C(\NC(=O)c1ccccc1)C(=O)N=Nc1c(O)[nH]c2ccc(C)cc12)=C\c1ccccc1 | . | 2.8 | 48 | 50 | . | . | . | -1.0 | -2% | 34
CC(=O)Nc1ccc(S(=O)(=O)NC2(C(F)(F)F)C(=O)NC(C)=C2C#N)cc1 (stereo not given) | -3.4 | 1.6 | -8 | -9 | 16 | 13 | 0.8 | 0.2 | -4% | 0

Entries above that contain four or more nitrogen atoms (5):
SMILES | AF4-AF9 inh | RanGTP-Impb inh | T cruzi inh | Calb FLC | rRNA inh HTS | rRNA inh HTS OD600 | rRNA inh HTS RFP | Bfl-1 A1 inh | Vif A3G | Beta cell apopt
COc1cc(C(=O)NC(=S)Nc2ccc3[nH]c(=O)[nH]c3c2)cc(OC)c1OC | -1.1 | 3.9 | -27 | 28 | 0 | 12 | 2.2 | 0.7 | 3% | -5
c1coc(-c2nn3c(-c4ccco4)nnc3s2)c1 | . | -2.7 | -9 | -4 | . | . | . | -0.2 | 25% | 4
O=C(NCCC(=O)N1CCN(c2ncccn2)CC1)c1ccccc1 | . | -2.6 | -20 | 0 | . | . | . | 0.7 | 10% | 0
CC(/C=C(\NC(=O)c1ccccc1)C(=O)N=Nc1c(O)[nH]c2ccc(C)cc12)=C\c1ccccc1 | . | 2.8 | 48 | 50 | . | . | . | -1.0 | -2% | 34
CC(=O)Nc1ccc(S(=O)(=O)NC2(C(F)(F)F)C(=O)NC(C)=C2C#N)cc1 (stereo not given) | -3.4 | 1.6 | -8 | -9 | 16 | 13 | 0.8 | 0.2 | -4% | 0

Next part
SMILES | AF4-AF9 inh | RanGTP-Impb inh | T cruzi inh | Calb FLC | rRNA inh HTS | rRNA inh HTS OD600 | rRNA inh HTS RFP | Bfl-1 A1 inh | Vif A3G | Beta cell apopt
CNC(=O)C1=C(C)Nc2nc3ccccc3n2C1c1ccc(F)cc1 (stereo not given) | -37 | 12 | -9 | 0 | 15 | 9 | 2.5 | 0.7 | 27% | -5
COc1cc(C2C3C(=O)N(c4ccccc4)C(=O)C3ON2c2ccccc2)cc(OC)c1OC (stereo not given) | . | 1.2 | -16 | 8 | . | . | . | 0.2 | 1% | -1
COc1ccc(C(=O)CCNc2cccc(Cl)c2)cc1 | . | -2.2 | 0 | 25 | . | . | . | 0.5 | 12% | -8
CC(=O)Nc1c(C#N)c(C(C)(C)C)cn1C | . | -1.6 | -7 | -17 | . | . | . | 0.0 | 25% | -4
O=C(CS(=O)(=O)c1ccccc1)Nc1nnc(Cc2ccccc2)s1 | 0.8 | 0.8 | -21 | -2 | -3 | -14 | 2.3 | 2.1 | . | -2
CC(C)CC(=O)NC(=S)Nc1ccc(S(=O)(=O)N2CCCC2)cc1 | -1.1 | -0.6 | 4 | 21 | -16 | -19 | 0.0 | -0.2 | -5% | -7
COC(=O)c1cc(-c2ccc(F)cc2)n(-c2ccccc2)n1 | -15 | -3.4 | 1 | -10 | -14 | -18 | -2.3 | 1.8 | 9% | -2
O=S(=O)(Nc1ccc(-c2nnc(SCc3ccc(Cl)cc3)o2)cc1)c1ccccc1 | . | -1.9 | 6 | -5 | . | . | . | -0.4 | . | -11
COCCNC(=S)N(CCc1c(C)[nH]c2ccc(OC)cc12)Cc1cccnc1 | 4.3 | -4.4 | 2 | . | 1 | -1 | -0.1 | 0.3 | -1% | -4
Cc1cc(NC(=O)c2noc3c2CCCCC3)nn1Cc1ccc(Cl)cc1 | . | 3.6 | 1 | -3 | . | . | . | 0.0 | -3% | 3
CCOC(=O)c1sc2nc(NC(=O)C(C)(C)C)sc2c1C | -12 | 3.8 | 17 | -6 | -20* | 1.5* | -2.9* | -0.3 | -14% | .
CN(C)c1ccc(/C=N/NC(=O)CN2CCCCC2)cc1Br | 1.1 | -3.8 | 2 | -2 | 3 | 7 | -2.4 | -0.6 | . | -3
CCN1CNC(=S)N(Cc2ccccc2)C1 | 1.5 | 2.8 | 4 | -5 | 8 | -6 | 0.8 | 0.4 | -6% | -10
Cc1ccc(C(O)c2ccncc2)cc1 (stereo not given) | 8.1 | 0.9 | -14 | -5 | 8 | 9 | -10 | 0.4 | 21% | 1
CC(NC(=O)c1ccccc1)c1nc2ccccc2n1Cc1ccc(C#N)cc1 (stereo not given) | . | -1.9 | 10 | -8 | . | . | . | 0.9 | 4% | -3
O=C(CCc1nnc(C2CCCCC2)o1)NCc1cccc(-n2cccn2)c1 | 4.6 | 3.0 | 1 | 4 | -2 | -2 | -4.2 | 0.3 | -2% | -2
CCOc1ccc(Oc2nc(NCC(C)C)nc(OC)n2)nn1 | -7.1 | -2.7 | 4 | -7 | 11 | 7 | 0.9 | 1.4 | 0% | -2
CCC(C)(C(=O)NC1CCCCC1)N(CC1CCCO1)C(=O)c1ccccn1 (stereo not given) | . | -4.6 | -4 | 22 | . | . | . | 0.9 | 1% | -2
COc1ccc(OC)c(NC(=O)C(CC(=O)O)NCc2ccco2)c1 (stereo not given) | . | -0.5 | -6 | -16 | . | . | . | -1.0 | 25% | .
O=C1COc2ccc(S(=O)(=O)N3CCN(c4cccc(Cl)c4)CC3)cc2N1 | -12 | 3.6 | -19 | 7 | 3 | 10 | -1.0 | 0.1 | . | 3
O=c1[nH]c(/C=C/c2cccc3ccccc23)nc2ccccc12 | -1.9 | -0.9 | -20 | -7 | -8 | -20 | -4.9 | -1.7 | . | 41
CCNc1ccc(S(=O)(=O)N(C)C)cc1NCC(=O)Nc1ccccc1Br | 2.4 | 2.2 | -4 | 3 | 7 | 6 | 5.5 | -0.3 | -5% | -3
Cc1cc(COC(=O)C2N3C(=O)[C@@H](NC(=O)COc4ccccc4)[C@H]3SC2(C)C)on1 (stereo not given in full) | -3.2 | 3.4 | 1 | 2 | 11 | 15 | 1.4 | 0.7 | . | 0
COc1ccc(-c2csc3ncnc(N4CCN(c5cccc(OC)c5)CC4)c23)cc1 | 5.6 | 4.3 | 37 | 0 | 4 | 3 | -0.3 | -0.9 | . | 3
CCCC(=O)N1CCN(c2ccc(NC(=O)c3ccc([N+](=O)[O-])o3)cc2)CC1 | 6.2 | 3.1 | 38 | 1 | -15 | -13 | -6.6 | . | . | .
Cc1cc([N+](=O)[O-])cc2ncccc12 | . | -2.1 | -11 | 31 | . | . | . | 1.0 | 22% | -2
CCOc1ccc(-n2c(SCC(=O)Nc3cc(C)on3)nnc2-c2c[nH]c3ccccc23)cc1 | . | 3.4 | 15 | 1 | . | . | . | 0.0 | 60%&10% | 0
Nc1ccc2oc(=O)c3ccccc3c2c1 | . | 0.0 | -3 | -2 | . | . | . | -0.1 | ? | 6
CN1CCN(C=Nc2nc3ccccc3nc2N2CCCC2)CC1 | -2.7 | ? | 37 | -8 | 25 | 13 | 12 | 0.1 | 18% | 2
Cc1ccc(C(=O)OCC(=O)c2c[nH]c3ccccc23)cc1NC(=O)c1ccco1 | 3.6 | 5.2 | -3 | 0 | -20* | -0.9* | 0.6* | 0.7 | -3% | 1
COC(=O)CC1C(=O)NCCN1C(=S)Nc1ccc(F)cc1 (stereo not given) | -0.3 | 1.7 | -1 | 6 | 4 | 10 | 0.6 | -0.6 | -5% | -3
O=C(CSc1nnnn1C1CCCC1)NCc1ccc2c(c1)OCO2 | . | 2.2 | -12 | -19 | 4 | 10 | -1.6 | 0.5 | -2% | -7
CCOC(=O)C1=NN(C(=O)Nc2ccc(OC)cc2)C2C(=O)N(c3cccc(C(F)(F)F)c3)C(=O)C12 (stereo not given) | . | 1.5 | -12 | 5 | . | . | . | 0.3 | 2% | -11
O=C(Nc1ccccc1)Nc1ccccc1Br | -3.2 | 0.7 | -28 | 10 | 17 | 19 | 0.4 | -7.4 | 1% | 11
CC(C)c1nc(C#N)c(NCCCn2ccnc2)o1 | . | 2.7 | -12 | -7 | . | . | . | -0.7 | -1% | 0
CCn1cnc2c(NCCc3cccnc3)nc(C#N)nc21 | -1.0 | . | . | . | 9 | 2 | 0.6 | 0.1 | . | -2

These rows are one share of the data, so the mix of outcomes need not match the whole.
